Rango dissoc inh: inhibitors of RanGTP-induced Rango-importin beta complex dissociation; O95149+P62826; 340,000 compounds, 0.071% hits; Biochemical FRET Rango-importin beta, RanGTP-induced dissociation; Potency, µM (series often up to 46.1 µM), without a hit: at the top dose activity change, negative = inhibition; active means falling FRET ratio curve, often poorly fitted, with flat reads before Ran was added; inconclusive means other falling curves, or compound fluorescence or quenching; inactive means flat or rising ratio curve;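 also: potency is read from the fitted curve at half-maximal effect; % of control where 0% means no effect; nearly all actives have a fitted effect of over 45% in size; -100% = wells without RanGTP and RCC1; the record marks most hits as doubtful in a second field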
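Compounds sat 5 min at room temperature with 0.1 uM Rango biosensor plus 0.25 uM importin beta, then FRET pre-read. RanGTP-RCC1 (0.6 uM Ran, 2mM GTP, 0.2 uM RCC1) added for 45 min, and the CFP/YFP post-read measured blocked complex dissociation.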
Rango complex inh: inhibitors of Rango-importin beta complex formation. Rango CFP/YFP FRET sensor + importin beta, 45 min. Potency, µM (titrated, usually from 92.2 µM), for inactives: at the top dose inhibition of complex formation. Q14974. 340,000 compounds, 0.031% hits. AID 540263; active = rising FRET ratio curve, often small or poorly fitted; inconclusive = mostly compound fluorescence or quenching in the first reads; inactive = flat curves in all reads;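 also: potency is read from the fitted curve at half-maximal effect; 0% = DMSO wells and 100% = buffer wells lacking importin beta; nearly all actives have a fitted effect of over 15% in size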
Target sequence (Q14974 whole entry, looked up): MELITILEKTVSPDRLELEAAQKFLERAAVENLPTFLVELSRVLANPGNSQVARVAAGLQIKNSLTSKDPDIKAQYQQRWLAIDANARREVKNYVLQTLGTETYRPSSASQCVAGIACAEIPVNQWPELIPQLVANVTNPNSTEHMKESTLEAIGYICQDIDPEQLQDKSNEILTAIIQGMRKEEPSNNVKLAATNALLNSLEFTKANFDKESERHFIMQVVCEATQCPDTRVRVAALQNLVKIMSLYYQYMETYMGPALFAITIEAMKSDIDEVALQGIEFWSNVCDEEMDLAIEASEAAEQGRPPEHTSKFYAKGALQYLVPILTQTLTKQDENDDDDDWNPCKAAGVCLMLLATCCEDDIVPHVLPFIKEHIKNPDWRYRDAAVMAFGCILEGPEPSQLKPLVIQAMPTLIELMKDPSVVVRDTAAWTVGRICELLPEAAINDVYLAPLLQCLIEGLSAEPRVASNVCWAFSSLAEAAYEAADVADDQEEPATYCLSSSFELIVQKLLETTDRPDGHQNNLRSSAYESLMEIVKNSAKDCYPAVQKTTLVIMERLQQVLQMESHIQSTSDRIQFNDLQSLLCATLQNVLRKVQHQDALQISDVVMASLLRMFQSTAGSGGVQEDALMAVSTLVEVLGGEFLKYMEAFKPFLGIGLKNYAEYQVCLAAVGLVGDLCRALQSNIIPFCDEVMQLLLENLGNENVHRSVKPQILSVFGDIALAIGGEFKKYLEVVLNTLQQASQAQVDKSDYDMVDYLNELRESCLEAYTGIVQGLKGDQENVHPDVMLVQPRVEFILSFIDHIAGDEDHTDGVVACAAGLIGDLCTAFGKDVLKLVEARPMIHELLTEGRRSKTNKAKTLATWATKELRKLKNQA
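Inhibition scored from the CFP 486 nm/YFP 530 nm FRET ratio 45 min after adding 0.125 microM importin beta to 50 nM Rango biosensor preincubated 5 min with compound (room temperature, PBS with DTT, Tween-20, BSA). No-importin wells as positive control.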
GLA inh pH 4.5: alpha-galactosidase A (human) inhibition, pH 4.5; 230,000 tested, under 10 active; purified enzyme, 4-MU-alpha-Gal fluorescence, pH 4.5; P06280; activity change, negative = inhibition, % at 105 µM; inconclusive = small, poorly fitted or top-dose-only inhibition, or a rising curve; inactive = flat fitted curve, though single readings scatter; no compound was filed as active;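 also: 0% = full activity with enzyme and -100% = basal without enzyme; dose as in the result columns while the protocol names 77 µM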
miR-21 reporter: raises the signal of a miR-21 reporter. HeLa miR-21 FLuc reporter, luciferase, 48 h. Potency, µM (highest dose often 38.3 µM), for inactives: top-dose reporter change, positive = more light. 340,000 tested, under 10 active; active = well fitted rising curve with a large enough effect; inconclusive = small, poorly fitted or top-dose-only effect; inactive = no such curve, though single readings can be large or run the other way;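 also: % of control where 0% means no effect; miR-21 action dims this reporter so a rising signal means less miR-21 action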
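Using DMEM plus 10% FBS, HeLa miR-21-FLuc cells are incubated with test compounds (final up to about 40uM) for 48 hours; firefly luciferase signal is then imaged following reagent-mediated lysis.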
* = called active by the depositor; ? = inconclusive; · = not tested or not shown. The list is partial. The share of hits here may be higher or lower than overall.

1: O=C(C[C@H]1C/C=C\C[C@H](Cc2ccc(F)cc2)C(=O)O[C@@H](c2ccccc2)CNC1=O)N[C@@H](CO)Cc1ccccc1
2: C=CCN(CC=C)C(=O)COC(=O)c1n[nH]c2ccccc12
3: O=C(C1CCCO1)N1CCN(S(=O)(=O)c2ccccc2)CC1 (configuration not stated)
4: COc1ccc(-c2nc(SCc3ccccc3)n(S(C)(=O)=O)n2)cc1
5: O=C(c1ccccc1)C(O)(CN1CCCCC1)c1ccccc1 (configuration not stated)
6: CCn1c(N2CCN(S(=O)(=O)c3ccccc3)CC2)nc2ccccc21
7: O=C(Nc1cc(Cl)ccc1-n1cncn1)C1CC1
8: COc1cc(OC)cc(C(=O)NC(=S)NNC(=O)Cc2cccs2)c1

compound no.,1,2,3,4,5,6,7,8
Rango dissoc inh,10%,-10%,-2%,?,-2%,8%,?,17%
Rango complex inh,0.9%,0.3%,-4.8%,1.8%,-1.2%,0.2%,-2.5%,-0.3%
GLA inh pH 4.5,·,3,-5,0,·,·,·,-1
miR-21 reporter,·,0%,-13%,-49%,·,?,·,-8%

9: Cc1cc(C)c2c(c1)/C(=N/NC(=O)c1cc(C)oc1C)CCC2
10: COc1ccc(C=C(NC(=O)c2ccccc2)C(=O)O)cc1OC
11: O=C(O)CNC(=O)c1ccc(S(=O)(=O)N2CCOCC2)cc1
12: COc1ccc(/C=C2\SC(=S)N(CCC(=O)Nc3ccccn3)C2=O)cc1OC
13: CSc1cccc(NC(=O)CN(C2CCCCC2)S(C)(=O)=O)c1
14: CCCn1cc(CN2CCCC(CNC(=O)c3ccc(F)cc3)C2)c(C)n1 (configuration not stated)
15: COc1ccc(CCNc2nc(C)nc3c2oc2ccccc23)cc1OC
16: CCC(C)(C)NC(=O)CN(C(=O)CCC(=O)Nc1nccs1)c1ccccc1C

compound no.,9,10,11,12,13,14,15,16
Rango dissoc inh,8%,10%,-10%,1%,1%,-6%,32%,-1%
Rango complex inh,4.2%,-0.6%,1.5%,?,7.6%,0.3%,-2.9%,4.4%
GLA inh pH 4.5,6,·,-1,·,-9,-12,9,·
miR-21 reporter,-34%,·,-2%,5%,-2%,-2%,25%,1%

17: CCn1cc(C(=O)O)c(=O)c2cc(Br)ccc21
18: CCOc1ccc(NC(=S)N2CCCN(Cc3cc(C)ccc3C)C2)cc1
19: CCN(CC)c1ccc(C2NC(=O)c3ccccc3N2)cc1 (configuration not stated)
20: CCn1c(O)c(C2=c3ccccc3=NC2=O)c2cc(Br)ccc21
21: CCc1ccc(NC(=O)[C@H](NC(=O)[C@@H]2Cc3ccccc3CN2)c2ccccc2)cc1
22: O=C(O)C1(NS(=O)(=O)c2ccc(Cl)cc2)CCCCC1
23: Clc1ccccc1CO/N=C1\CCCc2nonc21
24: COc1cc(Cl)ccc1OCc1cc(C(=O)N(C)C2CC(C)(C)NC(C)(C)C2)no1

compound no.,17,18,19,20,21,22,23,24
Rango dissoc inh,1%,-12%,1%,-11%,0%,1%,2%,-12%
Rango complex inh,-1.1%,-1.2%,-2.2%,-0.1%,3.4%,-2.4%,2.8%,1.3%
GLA inh pH 4.5,-16,2,·,2,·,15,-2,·
miR-21 reporter,1%,23%,·,1%,-24%,-1%,-31%,-10%

25: O=C(/C=C/c1ccccc1)NC(=S)Nc1ccc(CN2CCOCC2)cc1
26: CCc1c(C)nc(Nc2nc(C)c3ccc(OC)cc3n2)[nH]c1=O
27: Cc1nn(CC(=O)NCCN2CCCCC2C)c(=O)c2cc(-c3ccccc3)nn12 (configuration not stated)
28: CC(=O)N1CCN(CC(=O)Nc2cc(F)ccc2C)CC1
29: CCOc1cc(C(=O)Nc2ccc(NC(C)=O)cc2)ccc1OCC(=O)N1CCCCC1
30: CN(C)N1C(N)=C(C#N)C(c2ccc(Cl)cc2)C2=C1CCCC2=O (configuration not stated)
31: CC(=C1C(=O)c2ccccc2C1=O)N1CCN(CCN=CC2=C(O)CC(C)(C)CC2=O)CC1
32: c1csc(-c2nn3cnnc3c3ccccc23)c1

compound no.,25,26,27,28,29,30,31,32
Rango dissoc inh,9%,0%,1%,3%,5%,0%,11%,7%
Rango complex inh,-0.6%,-4.7%,-2.7%,5.3%,-3.4%,4.3%,-1.1%,2.7%
GLA inh pH 4.5,?,-20,·,·,-7,·,2,0
miR-21 reporter,4%,-11%,-1%,0%,0%,3%,-24%,-20%

33: Cc1ccccc1-c1nn(-c2ccc(F)cc2F)cc1CNCCN(C)C
34: CC(C)CNC(=O)C(=O)NCCCN1CCOCC1
35: Cc1[nH]nc2c1C(c1ccc(OC(=O)c3ccco3)cc1)C(C#N)=C(N)O2 (configuration not stated)
36: CN1C=C(C(F)(F)F)C=C/C1=C(\C#N)c1nnc2n1CCCCC2
37: Cc1ccc(NS(=O)(=O)c2cccc(C(=O)NCC3CCCO3)c2)cc1 (configuration not stated)
38: O=C(CCCc1nc(-c2ccccc2)no1)NC1CCCC1
39: CCCCn1c(SC(C)C(=O)NCC2CCCO2)nc2cc(C(=O)OC)ccc2c1=O (configuration not stated)
40: Cc1cc(S(=O)(=O)N2CCOCC2)ccc1OCC(=O)NCC1CCCO1 (configuration not stated)

compound no.,33,34,35,36,37,38,39,40
Rango dissoc inh,1%,1%,-4%,?,-15%,0%,1%,-5%
Rango complex inh,0.3%,-1.5%,6.3%,-0.7%,5.3%,-0.3%,-3.6%,-0.4%
GLA inh pH 4.5,-3,6,?,-1,·,·,·,·
miR-21 reporter,-12%,1%,-4%,-4%,·,0%,·,-2%

41: CN1CCC(N(C)C(=O)c2ccccc2Nc2ccc(SC(F)F)cc2)CC1
42: O=C(COC(=O)C12CC3CC(CC(C3)C1)C2)NCc1ccco1
43: Cc1ccc(/C=N/NC(=O)C(=O)N/N=C/c2ccc(C)o2)o1
44: CCCOc1ccc(N2C(=O)CC(N3CCC(O)(c4cccc(C(F)(F)F)c4)CC3)C2=O)cc1 (configuration not stated)
45: COc1cc2nc(C3CCC3)n(NC(=O)C3CCC(OC)CC3)c(=O)c2cc1OC (configuration not stated)
46: CCOC(=O)C1CCN(CC(=O)c2c(C)[nH]c3ccccc23)CC1
47: COc1ccc(-c2cc(-c3cccs3)c(C#N)c(SCC(=O)NCc3ccccc3OC)n2)cc1
48: CCn1c(C)c(C(C)=O)c(N2CCN(c3ccc(F)cc3)CC2)nc1=S

compound no.,41,42,43,44,45,46,47,48
Rango dissoc inh,0%,7%,0%,10%,-3%,-2%,-5%,-16%
Rango complex inh,2.4%,-2.0%,?,-0.8%,3.4%,-1.1%,0.1%,5.2%
GLA inh pH 4.5,-10,-12,0,-6,2,-1,-6,0
miR-21 reporter,-11%,-3%,3%,0%,0%,-5%,0%,-1%

49: CN1CCN(C2=Nc3cc(F)ccc3Cc3ccccc32)CC1
50: Cc1cc(OCCn2cncn2)ccc1[N+](=O)[O-]
51: COc1ccc(S(=O)(=O)N2CCCCC2)cc1NC(=O)c1[nH]c(C)c(C(C)=O)c1C
52: O=C(O)CCN(Cc1ccccc1)S(=O)(=O)c1ccccc1Cl
53: CCNC(=O)/C=C/c1ccccc1[N+](=O)[O-]
54: Cc1cccc(CSc2nnc([C@@H]3CCCN3C(=O)OC(C)(C)C)o2)c1
55: C=CCn1c(=O)c2c(C)c(C)sc2n2c(Nc3ccccc3)nnc12
56: C=CCn1c(O)c(N=NC(=S)Nc2ccc(OC)cc2)c2ccccc21

compound no.,49,50,51,52,53,54,55,56
Rango dissoc inh,·,-13%,16%,25%,7%,15%,-5%,21%
Rango complex inh,·,-3.1%,-4.8%,-1.4%,-0.9%,-1.0%,-4.9%,0.5%
GLA inh pH 4.5,0,·,·,4,3,-4,7,-3
miR-21 reporter,7%,0%,·,-1%,-2%,1%,0%,22%

57: CCOC(=O)C(=NC(C)CC)NNc1ccc(Br)cc1 (configuration not stated)
58: CC(C)(C)NC(=O)c1cc(Cl)ccc1[N+](=O)[O-]
59: O=S(=O)(c1ccccc1)N1CCN(Cc2c(O)ccc3ccccc23)CC1
60: OC(CN1CCOCC1)Cn1c(-c2cccc(Cl)c2)nc2ccccc21 (configuration not stated)
61: O=S(=O)(Nc1cccc(-c2ccc(N3CCCCCC3)nn2)c1)c1ccc(C(F)(F)F)cc1
62: Oc1c(Br)cc(Br)cc1C=NCc1ccccc1
63: Cc1ccc2nc(SCC3CCCCO3)[nH]c2c1 (configuration not stated)
64: Cc1noc(C)c1COC(=O)Cc1ccc(Cl)cc1

compound no.,57,58,59,60,61,62,63,64
Rango dissoc inh,?,-13%,3%,1%,3%,?,-4%,-13%
Rango complex inh,?,-2.5%,2.2%,0.2%,1.1%,?,3.2%,0.0%
GLA inh pH 4.5,6,-2,·,5,·,-4,-6,-5
miR-21 reporter,-18%,1%,·,-1%,-48%,-2%,18%,-11%

65: CCOC(=O)C(Cc1ccc(O)cc1)Nc1nc2ccccc2o1 (configuration not stated)
66: CCCCc1nc(SCc2ccc([N+](=O)[O-])cc2)n[nH]1
67: CCc1nc2oc3ccccc3c(=O)c2c(=O)n1CCOC
68: Cc1cccc(NC(=O)c2nc[nH]c2C(=O)N(C)Cc2ccccc2)c1
69: O=C(OCC#CCSc1nnc(-c2cccc3ccccc23)o1)c1ccc(Br)cc1
70: CC(=O)N1CCc2c(sc3c2c(=O)n(Cc2ccccc2)c(=O)n3CC(=O)NCC2CCCO2)C1 (configuration not stated)
71: Cc1ccsc1/C=C1/C(=O)NN(c2ccccc2)C1=O
72: Cn1ncc2c(=S)nc(Cl)[nH]c21
73: CCN1CCN(CNC(=O)c2cnccn2)CC1
74: CC(C)CCOc1ccc(CO[C@@H]2[C@H]3OC(C)(C)O[C@H]3O[C@@H]2C(O)CO)cc1 (some centres not stated)

compound no.,65,66,67,68,69,70,71,72,73,74
Rango dissoc inh,-4%,20%,-1%,0%,-13%,1%,-9%,-9%,1%,8%
Rango complex inh,-2.8%,-1.2%,-0.3%,1.4%,-0.4%,7.6%,-1.5%,2.1%,-1.5%,5.7%
GLA inh pH 4.5,·,14,6,·,·,·,-2,·,-7,·
miR-21 reporter,·,-6%,-1%,·,·,-2%,-5%,·,-3%,8%
